Assay outcomes (PubChem BioAssay)
PABP FP inh: PABP poly(A) RNA binding inhibitors, primary screen, biochemical, fluorescence polarization, uHTS. Polyadenylate-binding protein 1 (Homo sapiens), P11940. inhibition, % at 35 µM. 290,000 tested, 1% active;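 active = 50% or more with normal probe brightness, or confirmed in later tests; inconclusive = above 50% with abnormal brightness, or retests that disagree; inactive = below 50% or failed in later tests; about a fifth of its hits are not listed in these tables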;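 also: calls also rest on retests at 20 µM and on dose response follow-up; controls were probe without protein and protein plus probe with vehicle; some compounds called inactive have numbers as strong as hits; many hits fall short of the cut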
Target sequence (P11940 whole entry, looked up): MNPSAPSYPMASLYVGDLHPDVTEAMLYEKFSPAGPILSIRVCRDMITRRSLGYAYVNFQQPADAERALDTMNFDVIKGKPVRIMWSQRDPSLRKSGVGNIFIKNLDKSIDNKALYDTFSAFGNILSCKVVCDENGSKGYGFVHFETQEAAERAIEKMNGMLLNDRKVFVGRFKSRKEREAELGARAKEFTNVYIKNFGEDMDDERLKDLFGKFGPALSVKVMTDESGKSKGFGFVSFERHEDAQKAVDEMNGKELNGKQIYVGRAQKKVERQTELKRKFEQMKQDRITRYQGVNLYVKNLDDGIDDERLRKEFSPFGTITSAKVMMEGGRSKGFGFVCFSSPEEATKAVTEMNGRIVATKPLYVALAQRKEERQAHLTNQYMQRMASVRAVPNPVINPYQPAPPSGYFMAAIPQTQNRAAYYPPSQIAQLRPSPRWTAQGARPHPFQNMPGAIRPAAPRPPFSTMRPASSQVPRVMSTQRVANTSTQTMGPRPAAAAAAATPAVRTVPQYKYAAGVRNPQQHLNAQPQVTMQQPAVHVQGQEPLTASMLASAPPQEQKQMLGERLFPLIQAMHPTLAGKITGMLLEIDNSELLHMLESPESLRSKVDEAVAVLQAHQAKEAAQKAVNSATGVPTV
Rce1 inh: yeast Rce1p protease inhibitors, primary screen, biochemical, fluorescence, cell-free homogeneous | CAAX prenyl protease 2 (Saccharomyces cerevisiae (strain ATCC 204508 / S288c)), Q03530 | yeast membranes, quenched prenylated peptide cleavage fluorescence | calls only | 290,000 tested, 0.27% active | AID 2563, 2010;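 active = fall in fluorescence gain of 50% or more versus controls, with final raw signal at or below 3038400; inconclusive = same 50% fall but final raw signal above 3038400; inactive = fall in fluorescence gain under 50%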;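 also: plate controls were neutral control wells for no effect and wells lacking membranes for full effect; tested at 10 µM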
Target sequence (Q03530 whole entry, looked up): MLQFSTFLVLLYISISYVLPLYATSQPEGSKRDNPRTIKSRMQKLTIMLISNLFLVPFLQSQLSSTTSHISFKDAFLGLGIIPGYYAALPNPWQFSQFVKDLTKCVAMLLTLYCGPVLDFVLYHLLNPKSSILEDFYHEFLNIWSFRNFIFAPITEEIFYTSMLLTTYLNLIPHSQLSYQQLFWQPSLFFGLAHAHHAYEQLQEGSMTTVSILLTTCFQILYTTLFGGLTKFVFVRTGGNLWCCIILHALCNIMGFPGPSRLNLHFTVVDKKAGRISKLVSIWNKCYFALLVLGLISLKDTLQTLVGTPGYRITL
eIF4H inh: human eIF4H binding inhibitors, primary screen, translation initiation inhibitor project, biochemical, uHTS, fluorescence polarization; Eukaryotic translation initiation factor 4H (Homo sapiens), Q15056; eIF4H fluorescence polarization binding assay; inhibition, % at 35 µM; 290,000 tested, 0.94% active;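 active = 50% or more with normal probe brightness, or confirmed in later tests; inconclusive = above 50% with abnormal brightness, or retests that disagree; inactive = below 50% or failed in later tests; about a fifth of its hits are not listed in these tables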;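 also: calls also rest on retests at 20 µM and on dose response follow-up; 0% = protein and probe with vehicle and 100% = probe without protein; strong numbers were not always called active; many hits fall short of the cut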
HIV Env fusion: inhibitors of HIV-1 Env-driven cell-cell fusion, primary screen, HeLa-JRFL effector, CEM21 target cells, luciferase; inhibition, % at 12.3 µM; 360,000 tested, 1.1% active; AID 651610, 2012;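 active = mean replicate inhibition score of at least 50 and every replicate individually at or above 50; inconclusive = only one of the two criteria met; inactive = mean below 50 and not all replicates reaching 50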;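 also: 0% = plate neutral controls and 100% = maraviroc near 300 nM; one replicate is shown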
CSC inhib: cancer stem cell viability inhibitors, primary screen, luminescence. cancer stem cell-like cells viability. inhibition, % at 7.5 µM. 300,000 tested, 1.1% active. AID 2717, 2010;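 active = mean at 75% or more and at least half the replicates too; inconclusive = mean and replicates disagree; tested in HMLE shEcad cells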;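 also: 0% = median of negative and 100% = median of positive control wells; the first replicate is given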
Yeast UUG start: modulators of yeast start codon fidelity, primary screen, whole organism, S. cerevisiae, single point, plate reader | AID 602363, 2012 | 350,000 tested, 0.13% active | activity score, % at 18.7 µM | S. cerevisiae UUG-firefly luciferase reporter, luminescence/redox ratio;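 active = replicate mean at a twofold rise or more, about +100% in these data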;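 also: firefly luciferase made from a UUG start codon reports start codon fidelity; reporter light over untreated wells divided by growth signal over untreated wells; some hits fall short of that in this replicate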
MT1-MMP act inh: blockers of MT1-MMP proenzyme processing, primary screen, HT1080 RFP-PRO-GFP cells, GFP/RFP fluorescence; AID 651647, 2012; GFP/RFP ratio fluorescence, overnight; percent of plate control window, DMSO zero; 360,000 tested, 0.061% active; GFP/RFP ratio change, % at 20 µM;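 active = GFP/RFP ratio change of at least 30% with cell ATP level not reduced by more than half and red fluorescence within 50% of control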; also: strong numbers were not always called active
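Assay system – RFP-PRO-GFP reporter HT1080 cells · Compound dosing – single dose of 20 µM compound, 1% DMSO final · Incubation – overnight compound exposure at 37 °C · Measure – GFP/RFP fluorescence ratio · Benchmarks – DMSO wells and RFP-L50D-GFP cells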
eIF4H inh retest: further read-out of eIF4H inh, marked with its call; inhibition, %; compound at 20 µM; confirmation average;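 mean of two retest wells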
PABP FP inh retest: recorded beside PABP FP inh, whose call it bears; inhibition, %; compound at 20 µM; confirmation repeats;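 mean of two retest wells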
MT1-MMP act inh RFP: further read-out of MT1-MMP act inh, marked with its call; RFP signal change, %; measured here: RFP expression control read;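 0 = vehicle wells; hits needed this value within 50% of zero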
An asterisk follows results filed as active.

Results for CN1C(=O)/C(=C/c2cn(CC(=O)N3CCCCC3)c3ccccc23)c2ccccc21 ?
PABP FP inh: 9.6; Rce1 inh: inactive; eIF4H inh: -6.6; CSC inhib: -1.9

What do the screens show for `O=C(COc1coc(CN2CCN(c3ccccc3F)CC2)cc1=O)Nc1ccccc1`?
Rce1 inh: inactive; HIV Env fusion: -0.8; CSC inhib: -4.0; MT1-MMP act inh: 8.3; MT1-MMP act inh RFP: -7.0

How did Cc1csc(CN(C)C(=O)C2CCC(=O)N(CCN(C)C)C2)n1 (stereo unspecified) do in these assays?
PABP FP inh: 5.6; Rce1 inh: inactive; eIF4H inh: 3.3; HIV Env fusion: -9.3; CSC inhib: 1.2; Yeast UUG start: -22.0; MT1-MMP act inh: -0.4; MT1-MMP act inh RFP: 1.1

Results for CS(=O)(=O)Nc1cccc2cccnc12 ?
PABP FP inh: 3.1; eIF4H inh: 5.2; CSC inhib: -10.1; Yeast UUG start: -13.9; MT1-MMP act inh: 5.6; MT1-MMP act inh RFP: 6.5

Results for O=C1CCN(Cc2ccco2)C(=S)N1 ?
HIV Env fusion: -1.0; Yeast UUG start: -1.3; MT1-MMP act inh: 2.0; MT1-MMP act inh RFP: 0.9

How did O=C(CSc1oc(-c2ccc(F)cc2)nc1S(=O)(=O)c1ccc(F)cc1)NCC1CCCO1 (stereo unspecified) do in these assays?
PABP FP inh: 4.2; Rce1 inh: inactive; eIF4H inh: -4.1; HIV Env fusion: -30.4; CSC inhib: -17.8; Yeast UUG start: -9.2; MT1-MMP act inh: -1.0; MT1-MMP act inh RFP: 0.7

Results for Cc1nc(OCC(=O)c2ccc(Cl)cc2)c(C#N)c2c1COC(C)(C)C2 ?
PABP FP inh: 7.7; Rce1 inh: inactive; eIF4H inh: -1.3; CSC inhib: 22.7; Yeast UUG start: -15.1; MT1-MMP act inh: 2.8; MT1-MMP act inh RFP: -2.3

Results for FC(F)(F)c1cc(-c2cccs2)nc(N2CCOCC2)n1 ?
PABP FP inh: -3.7; Rce1 inh: inactive; eIF4H inh: 8.5; CSC inhib: 1.2; Yeast UUG start: 18.6; MT1-MMP act inh: 2.4; MT1-MMP act inh RFP: 2.4

What do the screens show for `CCc1c(C)sc(NC(=O)/C=C/C(=O)O)c1C(N)=O`?
PABP FP inh: -1.8; Rce1 inh: inactive; eIF4H inh: 15.3; HIV Env fusion: 10.1; CSC inhib: -14.0; MT1-MMP act inh: -0.2; MT1-MMP act inh RFP: 0.9

What do the screens show for `O=C(NNC(=O)c1ccccc1Cl)c1cccnc1`?
PABP FP inh: -1.4; Rce1 inh: inactive; eIF4H inh: 3.7; HIV Env fusion: -2.2; CSC inhib: 15.7; Yeast UUG start: -15.6; MT1-MMP act inh: 2.0; MT1-MMP act inh RFP: 1.9

Results for CSCC(=O)Nc1cc(C)on1 ?
PABP FP inh: -0.5; Rce1 inh: inactive; eIF4H inh: 5.5; HIV Env fusion: -12.7; CSC inhib: -15.7; Yeast UUG start: 2.8; MT1-MMP act inh: 3.3; MT1-MMP act inh RFP: 1.9

Results for CCCn1c(N2CCOCC2)nc2c1c(=O)[nH]c(=O)n2C ?
PABP FP inh: 12.2; Rce1 inh: inactive; eIF4H inh: 8.8; CSC inhib: -4.9; Yeast UUG start: 0.3; MT1-MMP act inh: 8.2; MT1-MMP act inh RFP: 6.3

What do the screens show for `O=C(Cc1cccs1)Nc1cccc(C(=O)Nc2ccco2)c1`?
PABP FP inh: -2.7; eIF4H inh: 8.6; HIV Env fusion: -26.3; CSC inhib: 39.7; Yeast UUG start: -1.8; MT1-MMP act inh: -1.6; MT1-MMP act inh RFP: 0.7

What do the screens show for `Oc1ccc(/C=N/NC(=S)N2CCOCC2)cc1`?
PABP FP inh: -1.9; Rce1 inh: inactive; eIF4H inh: 7.1; HIV Env fusion: -19.3; CSC inhib: 21.8; MT1-MMP act inh: 2.0; MT1-MMP act inh RFP: 3.4

Results for Oc1ccccc1CNCCCN1CCOCC1 ?
PABP FP inh: 2.6; Rce1 inh: inactive; eIF4H inh: 2.2; HIV Env fusion: -0.2; CSC inhib: -15.3; Yeast UUG start: -13.2; MT1-MMP act inh: -3.6; MT1-MMP act inh RFP: 1.0

What do the screens show for `Cc1cccc(Cn2c(N3CCc4ccccc4C3)nc3c2c(=O)[nH]c(=O)n3C)c1`?
PABP FP inh: -0.5; Rce1 inh: inactive; eIF4H inh: -6.3; CSC inhib: -5.0; Yeast UUG start: -19.4; MT1-MMP act inh: -2.0; MT1-MMP act inh RFP: 1.8

How did CN(C)S(=O)(=O)c1ccc(NC(=O)N2CCN(c3ccccc3Cl)CC2)cc1 do in these assays?
PABP FP inh: 1.5; Rce1 inh: inactive; eIF4H inh: 3.7; HIV Env fusion: 15.1; CSC inhib: 4.0; Yeast UUG start: -15.2; MT1-MMP act inh: 0.1; MT1-MMP act inh RFP: -8.3

Results for O=C(Nc1ccc(C(=O)NCc2ccccc2Cl)cc1)C1=CSCCO1 ?
PABP FP inh: 9.3; Rce1 inh: inactive; eIF4H inh: 0.4; HIV Env fusion: -4.4; CSC inhib: 10.4; Yeast UUG start: -2.8; MT1-MMP act inh: 4.5; MT1-MMP act inh RFP: -0.6

What do the screens show for `CCn1c(=O)c(=O)n(CC)c2cc(S(=O)(=O)N3CCc4ccccc43)ccc21`?
PABP FP inh: 7.7; Rce1 inh: inactive; eIF4H inh: -8.0; HIV Env fusion: -41.1; CSC inhib: -6.8; Yeast UUG start: -6.1; MT1-MMP act inh: -2.7; MT1-MMP act inh RFP: -1.2

What do the screens show for `COc1cccc(CN2CC(C(=O)NCC3CCOCC3)CCC2=O)c1` (stereo unspecified)?
PABP FP inh: -11.4; Rce1 inh: inactive; eIF4H inh: -12.0; HIV Env fusion: 0.8; CSC inhib: 14.4; Yeast UUG start: -0.7; MT1-MMP act inh: 0.6; MT1-MMP act inh RFP: 1.6

How did Clc1ccc(C2CC(c3ccco3)n3ncnc3N2)cc1Cl (stereo unspecified) do in these assays?
PABP FP inh: -15.8; eIF4H inh: -2.8; HIV Env fusion: inconclusive; CSC inhib: 21.5; Yeast UUG start: -23.0; MT1-MMP act inh: -16.3; MT1-MMP act inh RFP: -3.1

Results for COc1ccc(OC)c(CNS(=O)(=O)c2c(C)nc3scc(C)n3c2=O)c1 ?
PABP FP inh: 0.1; Rce1 inh: inactive; eIF4H inh: -2.1; HIV Env fusion: -10.8; CSC inhib: -14.5; Yeast UUG start: -5.2; MT1-MMP act inh: -0.4; MT1-MMP act inh RFP: 0.1

Results for CC(C)C[C@H]1C(=O)N2CCC[C@H]2[C@]2(O)O[C@](NC(=O)[C@@H]3C=C4c5cccc6[nH]c(Br)c(c56)CC4N(C)C3)(C(C)C)C(=O)N12 (stereo partly specified) ?
PABP FP inh: 4.9; Rce1 inh: inactive; eIF4H inh: 61.2; HIV Env fusion: -21.1; CSC inhib: 1.2; Yeast UUG start: -3.6; MT1-MMP act inh: -13.1; eIF4H inh retest: 29.6; PABP FP inh retest: 39.7; MT1-MMP act inh RFP: -4.0

How did CCC/C=C(\CCC)C(NS(=O)(=O)c1ccc(C(F)(F)F)cc1)c1ccccc1 (stereo unspecified) do in these assays?
PABP FP inh: -6.5; Rce1 inh: inactive; eIF4H inh: 3.8; CSC inhib: 101.6*

Results for CCCNS(=O)(=O)c1cc2c3c(c1)CCN3C(=O)CC2 ?
PABP FP inh: 8.1; Rce1 inh: inactive; eIF4H inh: 2.5; HIV Env fusion: -1.9; CSC inhib: -15.8; Yeast UUG start: -13.1; MT1-MMP act inh: -0.4; MT1-MMP act inh RFP: 7.0

Results for COc1cc(NC2c3ccccc3C(=O)N2c2cc(C)ccn2)cc(OC)c1OC (stereo unspecified) ?
PABP FP inh: 6.1; Rce1 inh: inactive; eIF4H inh: -3.3; CSC inhib: -4.1; Yeast UUG start: -10.0; MT1-MMP act inh: 0.5; MT1-MMP act inh RFP: 1.1

Results for COc1ccc(OC)c(C2N(c3ccccn3)C(=O)C3CCCN32)c1 (stereo unspecified) ?
PABP FP inh: 1.7; Rce1 inh: inactive; eIF4H inh: 1.8; HIV Env fusion: -18.1; CSC inhib: -4.4; Yeast UUG start: -7.3; MT1-MMP act inh: -4.3; MT1-MMP act inh RFP: 4.6

Results for CC(C)C(NS(=O)(=O)c1cccc2nsnc12)C(=O)Nc1nc2ccc(Cl)cc2s1 (stereo unspecified) ?
PABP FP inh: -10.8; Rce1 inh: inactive; eIF4H inh: 0.4; HIV Env fusion: 5.5; Yeast UUG start: -3.9; MT1-MMP act inh: -7.2; MT1-MMP act inh RFP: -11.4

Results for CS(=O)(=O)Nc1cccc(NC(=O)C2Cc3c(-c4cccc(C(N)=O)c4)ccnc3O2)c1 (stereo unspecified) ?
HIV Env fusion: -3.2; Yeast UUG start: -8.4; MT1-MMP act inh: 2.5; MT1-MMP act inh RFP: 4.1

How did CCN(CC)S(=O)(=O)c1ccc(N2CCOCC2)c(NS(=O)(=O)c2ccc(OC)cc2)c1 do in these assays?
PABP FP inh: 0.8; Rce1 inh: inactive; eIF4H inh: -3.3; HIV Env fusion: -3.1; CSC inhib: 0.0; Yeast UUG start: -5.0; MT1-MMP act inh: -3.7; MT1-MMP act inh RFP: -8.6

How did CCOC(=O)CSc1nc2c(sc(=S)n2CCc2ccccc2)c(=O)n1Cc1ccco1 do in these assays?
PABP FP inh: -17.0; Rce1 inh: inactive; eIF4H inh: -11.3; HIV Env fusion: 36.5; Yeast UUG start: -11.8; MT1-MMP act inh: -0.1; MT1-MMP act inh RFP: -6.1

How did CCOC(=O)c1c(C)c(C(=O)NCc2ccc3c(c2)OCO3)c(C)n1C do in these assays?
PABP FP inh: 5.3; Rce1 inh: inactive; eIF4H inh: 1.3; HIV Env fusion: 28.7; Yeast UUG start: -10.8; MT1-MMP act inh: 3.5; MT1-MMP act inh RFP: 0.5

Results for O=S(=O)(NCc1ccccn1)c1ccc2c(c1)OCCO2 ?
PABP FP inh: 3.6; Rce1 inh: inactive; eIF4H inh: 6.4; HIV Env fusion: -16.2; CSC inhib: -2.3; Yeast UUG start: -9.8; MT1-MMP act inh: -1.0; MT1-MMP act inh RFP: -1.4

How did COc1ccc(CCC(=O)NC2CCCN(Cc3ccc(Cl)cc3)C2)cc1OC (stereo unspecified) do in these assays?
PABP FP inh: 5.9; Rce1 inh: inactive; eIF4H inh: -7.3; HIV Env fusion: -28.3; CSC inhib: -24.2; Yeast UUG start: -19.4; MT1-MMP act inh: 2.5; MT1-MMP act inh RFP: 2.1

What do the screens show for `Cc1cc(Br)cn2c(Cc3ccsc3)c(-c3cccc(Cl)c3)nc12`?
HIV Env fusion: -19.2; Yeast UUG start: -10.9; MT1-MMP act inh: -1.7; MT1-MMP act inh RFP: -2.4

How did COc1ccc(-c2cc(C(F)F)n3ncc(C(=O)NCC4CCCO4)c3n2)cc1 (stereo unspecified) do in these assays?
PABP FP inh: 3.9; Rce1 inh: inactive; eIF4H inh: -5.3; CSC inhib: -8.2; Yeast UUG start: -6.5; MT1-MMP act inh: 6.1; MT1-MMP act inh RFP: 2.5
